# UCH37 inh – human UCH37 deubiquitinating enzyme inhibition; purified proteasome/UCH37, Ub-AMC cleavage fluorescence; inhibition, % (no concentration beside the values); 330,000 tested, 0.33% active;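 active = mean of two replicates above 20%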;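 note: 0% = compound-free wells with enzyme and 100% = wells lacking proteasome; stock transfer was 100 nL into about 20 µL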
# Target sequence (Q9Y5K5 whole entry, looked up): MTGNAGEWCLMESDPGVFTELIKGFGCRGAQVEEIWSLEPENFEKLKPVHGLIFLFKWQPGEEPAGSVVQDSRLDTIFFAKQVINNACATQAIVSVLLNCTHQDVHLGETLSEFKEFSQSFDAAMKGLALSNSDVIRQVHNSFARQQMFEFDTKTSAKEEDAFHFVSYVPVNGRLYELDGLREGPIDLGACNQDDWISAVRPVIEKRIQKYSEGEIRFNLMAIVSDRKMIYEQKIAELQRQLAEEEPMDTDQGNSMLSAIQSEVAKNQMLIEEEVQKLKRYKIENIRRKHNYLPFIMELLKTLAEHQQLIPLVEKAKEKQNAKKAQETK
#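 Material: Human UCH37 enzyme supplied as purified proteasome complex | Schedule: 30 min compound-proteasome preincubation then 25 min substrate reaction, room temperature | Detection: AMC fluorescence from Ub-AMC cleavage, excitation 355 nm, emission 460 nm | Benchmarks: Wells without proteasome as full block, compound-free enzyme plus substrate as uninhibited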
# Bfl-1 A1 inh – inhibitors of the anti-apoptotic protein A1, read as caspase activation; caspase activation, % (test concentration not listed); 330,000 tested, 0.066% active; MEF A1-2A-BIM cells, Caspase-Glo 3/7 luminescence, 3 h; percent of clofoctol response, vehicle zero;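 active = over half of replicate activation scores above 10%, or exactly half above 10 with the replicate mean above 10; inconclusive = replicate mean below 10 yet half the replicates above 10; inactive = over half of replicates below 10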;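 note: wells of about 30 µL received 50 nL stock; many hits fall short of the cut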
# Beta cell apopt – beta cell apoptosis inhibition. INS-1E cytokine-induced death, ATP luminescence, 48 h; percent of positive-control rescue, neutral wells zero. protection from apoptosis, % (concentration not given with the values). 300,000 tested, 0.8% active;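 active = all replicates at 75% or more, or half of them and the mean; inconclusive = half reach 75% but not the mean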;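 note: 0% = cytokine-treated negative control wells and 100% = positive control rescue; higher means more ATP so stronger rescue from cytokine killing; wells of about 40 µL received 100 nL stock; the first replicate is given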
# Ecoli rRNA inh – inhibitors of bacterial rRNA selective over humanized ribosomes; E. coli WT GFP vs humanized-ribosome RFP mutants, fluorescence, 24 h; active compounds read low; DMSO median 0, no signal -100; 350,000 tested, 1.6% active; GFP signal change (wild-type ribosome), % (test concentration not listed);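 active = significant combined selectivity score with lowered wild-type GFP, culture density cut under 30%, mutant RFP and density less affected; inactive = any of these conditions unmet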; note: one replicate is shown; some compounds called inactive have numbers as strong as hits
# FGF22 binding – shifts melting point of recombinant human FGF22; 340,000 tested, 1.5% active; recombinant FGF22 thermal shift, SYPRO orange fluorescence; percent of sucrose octasulfate shift, DMSO zero; calls only at 9.99 µM; AID 651658;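 active = melting point raised past a set limit in the mean and every replicate; inconclusive = no clear call; three in four hits are not shown here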
# Target sequence (Q9HCT0 whole entry, looked up): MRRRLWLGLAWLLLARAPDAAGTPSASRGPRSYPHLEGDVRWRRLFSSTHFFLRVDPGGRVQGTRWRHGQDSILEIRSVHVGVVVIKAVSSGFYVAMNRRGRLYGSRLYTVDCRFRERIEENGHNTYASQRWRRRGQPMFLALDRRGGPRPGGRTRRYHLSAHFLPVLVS
# E coli growth – blocks Escherichia coli growth; 330,000 tested, 0.21% active; OD600 absorbance (concentration not given with the values); AID 1053175; OD600, 23 h; active compounds read low;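 active = OD600 absorbance below the run mean of sample wells minus 3.6 SD, in any replicate, cut at about 0.56 in these data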;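 note: stock transfer was 300 nL into about 60 µL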
# AF4-AF9 inh – inhibitors of human MLL-AF4/AF9 interaction; AlphaScreen, biotin-AF4 peptide binding to FLAG-AF9; inhibition, % at 10 µM; 350,000 tested, 0.47% active;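 active = every replicate reaching a set inhibition limit, whatever the replicate mean, cut at about 25% in these data; inconclusive = mean inhibition reaches that limit but some replicates miss it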;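 note: 0% = plate neutral control median and 100% = total signal loss; the record names both 10 and 1 µM as test concentration; the first replicate is given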
# Target sequence (P42568 whole entry, looked up): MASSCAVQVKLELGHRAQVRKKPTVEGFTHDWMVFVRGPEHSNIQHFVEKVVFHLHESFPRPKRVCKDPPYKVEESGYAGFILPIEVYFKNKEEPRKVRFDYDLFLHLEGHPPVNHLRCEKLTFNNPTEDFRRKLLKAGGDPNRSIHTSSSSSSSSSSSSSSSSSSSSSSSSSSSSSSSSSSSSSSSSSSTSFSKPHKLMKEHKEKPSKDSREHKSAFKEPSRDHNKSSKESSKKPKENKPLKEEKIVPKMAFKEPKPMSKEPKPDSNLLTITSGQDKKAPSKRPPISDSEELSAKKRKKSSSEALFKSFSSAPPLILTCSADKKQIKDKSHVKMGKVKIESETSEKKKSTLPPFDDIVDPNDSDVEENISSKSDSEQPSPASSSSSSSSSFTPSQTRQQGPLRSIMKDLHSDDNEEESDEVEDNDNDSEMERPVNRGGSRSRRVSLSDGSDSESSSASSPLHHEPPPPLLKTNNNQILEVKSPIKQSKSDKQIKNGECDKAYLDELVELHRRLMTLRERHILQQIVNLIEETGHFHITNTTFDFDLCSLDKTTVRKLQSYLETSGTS
# T cruzi repl – T. cruzi replication inhibition | T. cruzi beta-gal in NIH3T3, luminescence, 90 h | inhibition, % (test concentration not listed) | 300,000 tested, 1.4% active;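 active = mean inhibition across valid replicates above about 55%, limit read from the data; inconclusive = mean below that limit but half or more replicates reach it; inactive = mean below it, under half of replicates reach it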;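 note: signal also drops with host cell toxicity which is not excluded here; 0% = plate median of DMSO wells and 100% = zero luminescence signal; higher percent means less beta-gal luminescence so fewer parasites; stock transfer was 50 nL into about 50 µL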
# Ecoli rRNA inh OD600 – recorded beside Ecoli rRNA inh, whose call it bears; OD600 change, %; measured here: OD600 growth;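 optical density of the mix in the first replicate; 0 = DMSO median and -100 = no signal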
# Ecoli rRNA inh RFP – second read-out of Ecoli rRNA inh, no call of its own (marks repeat the call); RFP signal change, %; measured here: RFP humanized mutant strains;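 first replicate; 0 = DMSO median and -100 = no signal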
# * hit, by the source's call; i = inactive; ? = inconclusive; nt = no result given. These rows are one share of the data; count on the stated rates, not on these rows.
SMILES,UCH37 inh,Bfl-1 A1 inh,Beta cell apopt,Ecoli rRNA inh,Ecoli rRNA inh OD600,Ecoli rRNA inh RFP,FGF22 binding,E coli growth,AF4-AF9 inh,T cruzi repl
CNC(=O)C1=C(C)n2c(nc3ccccc32)NC1c1ccc(OC)cc1 (centres undefined),2.9,0.0,2,0,3,7.9,i,0.69,-0.9,0
CCOc1ccc2c(c1)n(CO)c(=S)n2CO,0.3,0.0,10,nt,nt,nt,nt,0.69,nt,16
CN(C)S(=O)(=O)NC(c1ccccc1)c1ccccc1,-1.3,0.1,0,nt,nt,nt,nt,0.64,nt,-10
Cc1ccccc1N(CC(=O)NC(C)(C)C)C(=O)CCC(=O)Nc1nccs1,3.1,-0.3,-1,-3,0,-0.3,i,0.65,-4.3,2
Cc1nnc(SCc2ccc3c(c2)OCO3)s1,2.0,-0.6,-9,nt,nt,nt,nt,0.66,nt,-1
COc1ccc(CNC(=O)CN(C(=O)CCC(=O)Nc2nccs2)c2ccc(C)cc2)cc1,1.0,0.8,-1,-6,-2,-3.3,nt,0.66,-2.0,4
COC(=O)CSc1[nH]c(=O)cc(C)c1C#N,-0.3,-0.1,-4,nt,nt,nt,nt,0.7,nt,-4
Cc1cccc(N2CCN(C(=O)Cn3sc4nc(C)cc(C)c4c3=O)CC2C)c1 (centres undefined),9.5,0.0,-2,nt,nt,nt,nt,0.75,nt,41
CCCn1cc([C@@H]2C[C@H]3CN(Cc4cccc(Cl)c4)C(=O)[C@]34CCCN24)c(C)n1,3.0,0.9,-6,5,6,-4.7,i,0.72,0.7,0
CCc1ccccc1NC(=S)N(CCN(C)C)C(C)c1ccco1 (centres undefined),0.3,2.1,-4,9,6,-3.3,i,0.72,5.3,-9
O=C1c2ccccc2C(=O)C12OC2c1ccc(Cl)cc1Cl (centres undefined),5.8,0.2,1,6,11,-4.7,i,0.75,3.0,nt
Cc1occc1C(=O)NC(C)C1CCCO1 (centres undefined),4.8,1.5,1,nt,nt,nt,nt,0.71,nt,-9
COc1ccc(N2CCN(C(=O)c3ccc4[nH]c(C)c(C)c4c3)CC2)cc1,0.3,-0.7,-4,13,-11,4.9,i,0.67,1.6,7
CC(=O)Nc1ccc2c(c1)nc1n2CCN(C2CCCCC2)C1,-14,nt,nt,6,7,-8.7,i,0.66,1.1,nt
COc1cc(C(=O)NCC(c2ccco2)N2CCOCC2)cc(OC)c1OC (centres undefined),1.9,-0.3,nt,8,7,2.7,i,0.72,-0.1,-2
Cc1c(S(=O)(=O)Nc2cccc3ccccc23)c(=O)n(C)c(=O)n1C,3.9,0.4,nt,-1,0,-2.1,i,0.69,4.5,-4
COc1cc2c(cc1O)CCN(C(=O)c1ccco1)C2C (centres undefined),-0.6,-0.1,nt,nt,nt,nt,nt,0.69,3.0,-9
COc1ccccc1C1CC(=O)NC(SCC(=O)Nc2ccccc2)=C1C#N (centres undefined),5.0,nt,nt,-10,-18,1.2,i,0.71,1.8,-3
CCCCCC(=O)NN=C1CCN(Cc2ccccc2)CC1,1.3,0.3,-5,3,3,-2.0,i,0.7,0.7,-5
COc1ccccc1NC(=O)C(C)OC(=O)CSCC(=O)Nc1ccc(C)cc1C (centres undefined),0.1,0.5,-1,-8,-5,8.8,i,0.65,-2.2,nt
CCCCN(C(=O)CC1CCCC1)c1c(N)n(CCC)c(=O)[nH]c1=O,1.8,1.0,2,8,9,0.6,i,0.68,-2.1,nt
Cc1cc(C(F)(F)F)nc(CCNC(=O)C2CCC(=O)N(Cc3cccc(F)c3)C2)n1 (centres undefined),1.5,0.1,-3,2,-5,-4.7,i,0.72,-0.7,-7
CC(=NNC(=O)c1ccncc1)c1ccccc1O,9.1,nt,nt,-30*,-6.5*,-8.8*,i,0.67,-6.7,nt
COc1ccc(C(=S)N2CCNCC2)cc1,1.4,-0.1,0,nt,nt,nt,nt,0.68,nt,9
Cc1cccc2cc(CN(CC3CCCO3)C(=O)c3cccs3)c(=O)[nH]c12 (centres undefined),-4.4,0.8,-2,11,4,2.1,i,0.71,-1.4,9
O=C(O)CSc1nnc(-c2ccccc2Br)n1-c1cccc(C(F)(F)F)c1,3.0,0.7,2,-24*,-12*,3.2*,i,0.63,-1.6,-10
Cc1cc(S(=O)(=O)NC(C)C)ccc1OCC(=O)NCc1ccccc1,2.4,-0.1,-7,2,4,1.7,i,0.68,3.6,11
O=C(O)Cn1c2ccccc2c2n[nH]c(=S)nc21,4.9,0.7,-5,11,5,2.3,nt,0.64,-9.8,-2
CC(=O)c1ccc(NC(=S)NCc2cccnc2)cc1,2.9,0.6,100*,-14,-18,31,i,0.69,-0.6,9
Cc1cc(NC(=O)c2ccccc2)ncc1NC(=O)c1cccs1,2.9,-7.0,6,5,8,0.0,i,0.65,-0.3,-5
COc1ccc(OC)c(NC(=O)CSc2nc(N3CCOCC3)nc(N3CCOCC3)n2)c1,1.3,-0.5,-5,-2,1,-1.1,i,0.71,1.6,-2
CC1(C)CC(C(N)=S)CCO1 (centres undefined),4.2,0.7,-3,19,-3,-0.4,i,0.72,0.8,-12
Cc1noc(C)c1C(=O)OCC(=O)/C=C1/N(C)c2ccccc2C1(C)C,-11,nt,nt,7,4,40,i,0.67,-4.8,nt
COc1cc(OC)c(OC)cc1CNc1cc(C)ccc1OC,5.5,0.2,46,-9,-6,1.5,i,0.67,9.3,2
COc1cc(CC(=O)OCc2ccccc2F)cc(OC)c1OC,2.8,0.1,-7,-2,-10,-1.1,i,0.65,-3.1,-10
CCC(C)NS(=O)(=O)c1ccc(N)cc1 (centres undefined),1.1,-0.3,-5,6,6,0.9,i,0.74,-3.4,-7
Cc1ccc(NC(=O)CCNS(=O)(=O)c2ccc3c(c2)CCC(=O)N3)cc1F,0.8,nt,-2,-2,-9,-3.8,i,0.74,5.0,-1
Cn1cc(S(=O)(=O)N2CCc3ccccc32)cc1C(=O)NC1CCCCC1,1.9,0.0,-7,1,14,4.6,i,0.67,0.1,10
O=C(CSc1nnc(-c2cccs2)o1)c1cccs1,4.4,-2.4,-10,8,6,-4.7,i,0.67,?,26
CC(NC(=O)COC(=O)C1CC1C)c1cccc(Cl)c1 (centres undefined),3.6,0.9,-14,0,8,0.6,i,0.65,-16,nt
O=C(COC(=O)/C=C/c1cccc(Cl)c1)Nc1c(F)cccc1F,2.6,-2.0,-7,4,13,-1.0,i,0.75,-1.1,nt
Cc1ccc(NC(=O)CN(C)C(=O)Cn2ncc(Cl)c(Cl)c2=O)cc1,2.8,0.0,-6,4,1,0.7,i,0.65,-9.5,-14
COc1ccc(OC)c(NC(=O)c2cc(-c3cc(Cl)ccc3O)n[nH]2)c1,-25,0.5,35,nt,nt,nt,nt,0.72,nt,-2
Nc1nnc(-c2ccc(F)cc2)s1,2.3,-0.4,-7,nt,nt,nt,nt,0.64,nt,-9
Cc1cc(CN2CCCC(N3CCc4ccccc4C3)C2)cc(C)c1O (centres undefined),5.4,0.2,nt,-4,3,-2.8,i,0.67,8.6,47
Nc1nc(SCC(=O)NCC2CCCO2)[nH]c(=O)c1NC(=O)c1ccc(F)c(F)c1 (centres undefined),2.4,-0.2,2,4,14,0.2,i,0.72,-2.1,1
Cc1ccc(-n2nc(C(=O)N3CCN(C)CC3)c3c4ccccc4n(C)c3c2=O)cc1,-15,1.4,-6,nt,nt,nt,nt,0.76,nt,14
O=c1[nH][nH]cc1C=Nc1ccc(Oc2ccccc2)cc1,5.0,0.0,4,10,5,-3.9,i,0.68,1.5,5
CCCc1ccc(OCC(O)CN2CCN(CCO)CC2)cc1 (centres undefined),3.5,1.0,nt,13,12,1.6,i,0.74,-1.4,0
CNS(=O)(=O)c1ccc2c(c1)C(=O)c1cc(S(=O)(=O)NC)ccc1CC2,4.2,0.8,1,5,9,-0.5,i,0.69,-2.0,nt
Cc1ccc(C2Nc3cccc4cccc(c34)N2)s1,-3.5,-0.3,0,nt,nt,nt,nt,0.67,nt,4
COc1cc(OC)cc(C(=O)N2CCN(C(=O)Cc3ccccc3)CC2)c1,-2.4,0.0,-8,-7,-7,-1.8,nt,0.72,-0.4,12
O=C(NCc1ccc(Cl)cc1)c1cc2ccccc2oc1=O,-13,0.8,-6,-1,5,-1.8,i,0.66,-1.8,15
COc1cc(NC(=O)C2CC(c3c(F)cccc3Cl)=NO2)cc(OC)c1OC (centres undefined),nt,2.3,2,11,12,0.6,i,nt,2.6,10
CCN(CC)S(=O)(=O)c1ccc(S(=O)(=O)Nc2ccc(C(=O)N3CCCC3)cc2)cc1,0.9,0.2,1,nt,nt,nt,nt,0.66,nt,5
C/C(=N\NC(=O)c1ccccc1)c1ccccc1Br,nt,0.6,11,7,6,11,i,nt,2.8,-20
COC(=O)CSc1nnc(CNc2ccc(OC)cc2)n1C,5.2,0.0,0,nt,nt,nt,nt,0.7,nt,-4
Cn1cc(S(=O)(=O)c2ccccc2)c(=O)c2cc(F)c(N3CCOCC3)cc21,-65,0.4,nt,3,7,-0.8,i,0.61,-5.1,-12
Cc1ccc(NCC(=O)Nc2c(C)n(C)n(-c3ccccc3)c2=O)cc1S(=O)(=O)N(C)C,nt,0.1,-2,3,3,-4.8,i,nt,5.3,1
Cc1ccc(CN(C)CC(=O)Nc2ccccc2C(=O)NC2CC2)o1,-0.9,-0.1,-1,5,8,-1.9,i,0.7,0.7,nt

# Following part:
SMILES,UCH37 inh,Bfl-1 A1 inh,Beta cell apopt,Ecoli rRNA inh,Ecoli rRNA inh OD600,Ecoli rRNA inh RFP,FGF22 binding,E coli growth,AF4-AF9 inh,T cruzi repl
Cc1cc(C)n2nc(C(=O)N/N=C/c3c4ccccc4cc4ccccc34)nc2n1,nt,0.3,-1,nt,nt,nt,i,nt,9.2,0
COc1ccc(CC(=O)OCC(=O)Nc2ncc(Cl)cc2Cl)cc1,1.7,-0.2,-1,nt,nt,nt,nt,0.73,nt,0
CN(C)c1ccc(C(=O)NCC2CCCO2)cc1 (centres undefined),3.0,0.6,-6,nt,nt,nt,nt,0.68,nt,-7
COc1ccc(O)c(C(=O)c2cc(C(=O)NCCc3ccccc3)c(=O)n(CCc3ccccc3)c2)c1,5.9,-0.9,nt,nt,nt,nt,nt,0.76,nt,53
O=C(CN1C(=O)S/C(=C/c2ccncc2)C1=O)N1CCOCC1,0.2,-0.3,-8,5,10,-1.2,i,0.69,-34,6

# Random excerpt: 3 records from the list.
SMILES,UCH37 inh,Bfl-1 A1 inh,Beta cell apopt,Ecoli rRNA inh,Ecoli rRNA inh OD600,Ecoli rRNA inh RFP,FGF22 binding,E coli growth,AF4-AF9 inh,T cruzi repl
O=C(CN1C(=O)S/C(=C/c2ccncc2)C1=O)N1CCOCC1,0.2,-0.3,-8,5,10,-1.2,i,0.69,-34,6
CN(C)c1ccc(C(=O)NCC2CCCO2)cc1 (centres undefined),3.0,0.6,-6,nt,nt,nt,nt,0.68,nt,-7
Cc1cc(C)n2nc(C(=O)N/N=C/c3c4ccccc4cc4ccccc34)nc2n1,nt,0.3,-1,nt,nt,nt,i,nt,9.2,0
